H5N1 antiviral – antiviral screen in MDCK cells, H5N1 avian flu; AID 740; cytopathic effect, luminescence, 72 h; active compounds read high; no value below 0 was filed and about half of the inactive calls have no number; reference of the scale not given here; inhibition, % at 50 µM; 96,000 compounds, 0.07% hits; in the data active means inhibition above about 25%
* hit, by the source's call; i = inactive. The list is partial (hit frequency here may not be typical).

SMILES	H5N1 antiviral
Cc1c(NC(=O)C(C)OC(=O)CNC(=O)c2ccccc2)c(=O)n(-c2ccccc2)n1C (stereo unspecified)	i
CC1CCC(C(C)C)C(OC(=O)COC(=O)c2ccc(=O)[nH]c2)C1 (stereo unspecified)	i
Cc1ccc2nc(SCC(=O)c3ccc(Cl)s3)[nH]c2c1	0.1
CC(=O)Nc1ccc(S(=O)(=O)NCCSCc2ccc(Cl)cc2Cl)cc1	0.8
CC(Nc1ccc(Br)cc1)C(=O)N/N=C/c1ccccc1OCc1ccccc1 (stereo unspecified)	6.1
N#CC1=C(N)Oc2n[nH]c(-c3ccccc3)c2C1c1cccnc1 (stereo unspecified)	i
N#Cc1ccc(C(=O)NCC(c2ccco2)N2CCCC2)cc1 (stereo unspecified)	i
Cc1csc(NC(=O)CSc2nc(C)nc3c2c(=O)n(C)c(=O)n3C)n1	2.3
CC1CCCC(C)N1C(=O)CSc1nnc(C2CCCCC2)o1 (stereo unspecified)	i
CC1=C/C(=C\c2ccc3c(c2)OCO3)C(=O)S1	i
O=C1CSC(c2ccccc2F)N1c1cc(Cl)ccc1O (stereo unspecified)	2.0
CN1C2C=C3C(C#N)=C(N)C(C#N)(C#N)[C@H](c4c(F)cccc4F)[C@H]3C1CC2 (stereo partly specified)	i
CCOC(=O)N1CCN(C(=O)c2ccc3c(c2)N(CC)CCS3)CC1	2.0
O=C1C2(c3ccccc3)CN(CCO)CC1(c1ccccc1)CN(CCO)C2	i
C=CCn1c(SCC(=O)Nc2sc(C)c(C)c2C(=O)OCC)nnc1-c1sc(N)nc1C	1.1
CCc1ccc(-n2c(O)c(C=NCCN(CC)CC)c(=O)[nH]c2=O)cc1	0.4
COC(=O)C1CCN(CC(N)=O)CC1	i
CSc1nnc(-c2cnccn2)n1Cc1ccccc1	i
COc1ccc2c(c1)C1(Nc3ccccc3-c3nc4ccccc4n31)C(=O)N2C (stereo unspecified)	0.4
CC(C)CCNC(=O)C1CCN(c2nnc(-n3cccc3)s2)CC1	0.8
COc1ccc(NC(=O)CSc2nnc(-c3ccco3)n2C)cc1	i
CCCC(=O)Nn1cnc2c(c1=O)C1(CCCC1)Cc1ccccc1-2	0.3
O=c1cc2c(n[nH]1)CCCC2	i
C=C(C)c1cccc(C(C)(C)NC(=O)N2CCN(c3ccccn3)CC2)c1	1.4
CCNC(=O)CSc1nc2ccccc2c(=O)n1CCCOC(C)C	0.3
COc1ccc(C2=C(N)c3ccccc3C2=O)cc1	i
CC1CCCCN1C(=O)Nc1cccc(Cl)c1 (stereo unspecified)	0.1
CCOc1ccc(C2NC(=O)c3ccccc3O2)cc1 (stereo unspecified)	i
C/C=C/C(=O)OCC(=O)Nc1c(Cl)cccc1Cl	0.6
O=C(c1noc2c1CCCC2)N1CCN(c2ccc(F)cc2)CC1	i
O=C(Nn1c(C2CCC2)nc2ccccc2c1=O)C1CCC1	0.4
Cc1cc(NC(=O)CSc2nc3cc(Cl)ccc3s2)no1	i
C=CCNC(=O)c1ccc(OC)cc1OC	1.7
O=P1(c2ccccc2)C=Cn2c1cc1c2CCCC1 (stereo unspecified)	i
CCCCCCN1N=C(C)C(C(=O)c2ccc(Cl)cc2)C1=O (stereo unspecified)	i
O=C(NC1(C(F)(F)F)NC(=O)N(Cc2cccnc2)C1=O)c1ccccc1 (stereo unspecified)	1.4
O=C(Cc1ccccc1)N/N=C/c1ccc(Cl)cc1Cl	0.2
CCCCCCC(C)n1cc(C(C)=O)c(=O)[nH]c1=O (stereo unspecified)	i
Cc1cc(NC(=O)Cn2nnc3sc4c(c3c2=O)CCC(C(C)(C)C)C4)no1 (stereo unspecified)	1.9
Cc1ccc(-n2c(SCC(N)=O)nnc2-c2ccccn2)cc1	0.3
CN(C)c1nc(C(=O)Nc2ccccc2)nc(N(C)C)n1	1.4
O=C1CCc2cc(S(=O)(=O)N3CCC(C(=O)NC4CCCc5ccccc54)CC3)ccc2N1 (stereo unspecified)	0.6
Cc1cc(C)n(CCc2nc(-c3cc4ccccc4o3)cs2)n1	i
O=C(CN1C(=O)NC2(CCCCCC2)C1=O)c1ccc2c(c1)OCCO2	i
O=C(Nc1c(F)c(F)c(F)c(F)c1F)C1CCCCC1	i
Cc1ccccc1C(=O)NC(NCC1CCCO1)C(Cl)(Cl)Cl (stereo unspecified)	0.3
NS(=O)(=O)c1ccc(CNC(=O)c2ccc(Br)o2)cc1	i
O=C(/C=C/c1ccccc1)c1ccc2c(c1)OCCCCO2	1.4
Cc1cnc(Nc2nc3ccccc3o2)nc1C(=O)Nc1cccc(C(F)(F)F)c1	i
CCOC(=O)C1=C(C)NC(SCC(N)=O)=C(C#N)C1c1ccccc1 (stereo unspecified)	i
COc1cccc(N2CCN(C3CC(=O)N(c4ccc(Cl)cc4)C3=O)CC2)c1 (stereo unspecified)	0.6
COc1ccc2occ(C(=O)c3ccc(N=C(C)N(C)C)cc3)c2c1	i
CC(=O)Nc1cc(C(F)(F)F)ccc1OCC1CCCO1 (stereo unspecified)	i
CCn1cnc2cc(NS(=O)(=O)c3ccc(C)cc3)ccc21	1.6
O=C(Nc1ccccc1C(=O)N1CCCC1)C1CCN(c2ncccn2)CC1	i
COC(=O)c1ccc(CNC(=O)COc2ccccc2Br)o1	i
Clc1ccc(Cl)c(OCCN2CCOCC2)c1	i
CCCCNC(=O)Nc1ccon1	0.4
C/C(=N/OC(=O)c1ccc(C)cc1)c1ccc(N2C(=O)C3CCCCC3C2=O)cc1 (stereo unspecified)	i
COC(=O)CCN(C(=O)c1cccc(OC(C)=O)c1)c1ccccn1	0.1
Continued.
SMILES	H5N1 antiviral
CCOC(=O)N1CCC(NC(=O)c2cc3c(=O)n(C)c4ccccc4c3n2C)CC1	1.4
Cn1ncc([N+](=O)[O-])c1C(=O)N1CCOCC1	0.7
CN(Cc1nc(-c2ccccn2)no1)S(=O)(=O)c1ccccc1	i
Cc1ccnc(N2CCCC(C(=O)Nc3cc(F)ccc3C)C2)n1 (stereo unspecified)	i
O=C(CCC(=O)N1CCCC1)Nc1nnc(C2CCCCC2)s1	0.3
CCN(CC(=O)NC(C)C)C(=O)c1ccc(S(=O)(=O)N(C)c2ccccc2OC)cc1	i
O=C(CSc1nnc(Cn2c(=O)sc3ccccc32)n1CCc1ccccc1)N1CCCC1	0.0
O=C(Nc1ccc(Cl)cc1)c1cnc(-c2ccccc2)nc1-c1ccccc1	i
COc1ccccc1-c1nc(C#N)c(N2CCCCCC2)o1	1.8
Cc1cnc(SCCc2ccncc2)nc1C	i
CCOc1cccc(C(=O)Nc2cccc(-c3nnc(-c4ccc(C)cc4)o3)c2)c1	0.3
O=c1c2ccccc2nc(SCc2cn3ccsc3n2)n1-c1ccccc1	2.3
CCOc1ccccc1N1Cc2ccccc2C1	i
CCCCOC(=O)CSc1nc(N)c(C#N)c(-c2ccc(OCC)cc2)c1C#N	0.3
COc1ccc(CCNC(=O)C2(C)CCC(=O)N2Cc2ccc3c(c2)OCO3)cc1OC (stereo unspecified)	i
c1ccc(OCCOc2ncnc3sccc23)cc1	2.6
CCCn1c(=O)c(C(=O)NCc2ccncc2)c(O)c2ccccc21	i
CC(C)C(NS(=O)(=O)c1cccc2nsnc12)C(=O)N1CCc2ccccc2C1 (stereo unspecified)	1.7
COc1ccccc1Cn1nnc2c(=O)[nH]c(C3CCN(C(=O)c4ccc(C)cc4)CC3)nc21	1.4
O=S(=O)(NCc1cc(-c2ccccc2)no1)c1ccc(Cl)cc1	i
O=[N+]([O-])c1ccc2nc(/C=C/c3ccc(Cl)cc3)[nH]c2c1	6.3
Cc1c(C(=O)Nc2ccc(Cl)cc2)c2ccccn2c1C(=O)c1ccc([N+](=O)[O-])cc1	0.4
COc1ccc2cc3cc(C(=O)NCCN4CCc5ccccc5C4)oc3nc2c1	0.4
Cc1[nH]nc2nc(SCC(=O)NCC3CCCO3)n(-c3ccc(Br)cc3)c(=N)c12 (stereo unspecified)	1.5
CCC(=O)Nc1ccc2c(c1)C(=O)c1ccccc1C2=O	i
COc1ccccc1OCc1ccc(C(=O)NC(C)(C)C)o1	i
C=CCn1c(=O)c2ccccc2n2c(SCC(=O)N3CCCc4ccccc43)nnc12	3.9
c1ccn2c(SCc3cn4ccsc4n3)nnc2c1	i
Cn1c(SCC(=O)NCc2ccc(F)cc2)nc2ccccc21	1.7
CC(=O)Nc1ccc2c(c1)C(=O)N(C1CCCCC1)C2=O	1.4
CC(C)CC(=O)Nc1ccccc1N1CCN(C(=O)c2ccccc2)CC1	0.6
CCc1cc(C(c2ccc(F)cc2)N2CCOCC2)c(NC(=O)c2ccccc2)s1 (stereo unspecified)	i
Cc1ccc(C(=O)Nc2cccc(-c3cnc4ccccc4n3)c2)cc1	3.6
O=C1CSC2(C(=O)N3CCCc4cccc2c43)N1c1cccc(C(F)(F)F)c1 (stereo unspecified)	3.0
O=S(=O)(NCc1ccccn1)c1ccc(F)cc1	0.3
CCCCn1c(=NC(=O)c2cccnc2)c(C(=O)OCC)cc2c(=O)n3ccccc3nc21	0.7
CCCCOc1ccc(/C(O)=C2/C(=O)C(=O)N(CCN(C)C)C2c2ccc(O)c(OC)c2)cc1 (stereo unspecified)	i
Cc1cccc(CN2CCN(CC(=O)N3CCCC3)C2=O)c1	0.2
C=CCN1C(=O)CSC1=Nc1ccc(O)cc1	0.3
Oc1ccc2c(c1)C1CCCC1(N1CCOCC1)O2 (stereo unspecified)	0.6
CCC(=O)N1CCc2cc(S(=O)(=O)NCCC(=O)Nc3cc(C)cc(C)c3)ccc21	0.2
O=C(NCCc1ccccc1)C1CCN(S(=O)(=O)c2ccc(-c3nn[nH]n3)cc2)CC1	1.4
COc1ccc(S(=O)(=O)N=C2C=C(C)C(=O)C(C)=C2)cc1	i
Cn1c(CNc2ccccc2)cc(=O)n(C)c1=O	0.8
N#Cc1c(SCC(=O)O)nc(N2CCCCC2)c2c1CCCC2	i
O=C(NC1(C(F)(F)F)NC(=O)N(C2CCCC2)C1=O)C1CC1 (stereo unspecified)	1.1
CCn1c(=O)c(C(=O)NCCc2ccccc2)c(O)c2ccccc21	2.6
O=C(c1cc2c(ccc3ccccc32)o1)N1CCN(c2ncc(C(F)(F)F)cc2Cl)CC1	i
CCOc1ccc(-n2c(SCC(=O)Nc3ccccc3C)n[nH]c2=O)cc1	i
CCc1nccn1S(=O)(=O)c1ccc2ccc(C)cc2c1	i
O=c1c2ccccc2nc2ccc(N3CCOCC3)nn12	0.4
COc1ccc(N2C(=O)CC(Sc3ncn[nH]3)C2=O)c(OC)c1 (stereo unspecified)	i
COc1ccc(OC)c(-c2cc(C(=O)Nc3cc(C)on3)no2)c1	i
Cc1sc2c(c1C)c(=O)n(-c1ccccc1)c1nnc(C)n21	0.8
O=C(CCN1CCN(Cc2ccccc2)CC1)Nc1cccc(Cl)c1	i
CN1C(=O)C2(Nc3ccccc3-c3nc4ccccc4n32)c2ccccc21 (stereo unspecified)	i
O=C(NCc1ccco1)C(Cc1ccccc1)N1C(=O)C2C3C=CC(C3)C2C1=O (stereo unspecified)	4.3
CCOc1ccc(S(=O)(=O)NCc2ccco2)c2ccccc12	3.6
O=C(O)c1c2c(nc3ccc(S(=O)(=O)N4CCC(C(=O)N5CCCCC5)CC4)cc13)CCCC2	0.4
CNC(=O)CN(c1cccc(Br)c1)S(C)(=O)=O	0.6

Exported as a markdown table: part of the list above.
| Compound | H5N1 antiviral |
| --- | --- |
| Cc1cccc(CN2CCN(CC(=O)N3CCCC3)C2=O)c1 | 0.2 |
| C=CCN1C(=O)CSC1=Nc1ccc(O)cc1 | 0.3 |
| Oc1ccc2c(c1)C1CCCC1(N1CCOCC1)O2 (stereo unspecified) | 0.6 |
| CCC(=O)N1CCc2cc(S(=O)(=O)NCCC(=O)Nc3cc(C)cc(C)c3)ccc21 | 0.2 |
| O=C(NCCc1ccccc1)C1CCN(S(=O)(=O)c2ccc(-c3nn[nH]n3)cc2)CC1 | 1.4 |
| COc1ccc(S(=O)(=O)N=C2C=C(C)C(=O)C(C)=C2)cc1 | i |
| Cn1c(CNc2ccccc2)cc(=O)n(C)c1=O | 0.8 |
| N#Cc1c(SCC(=O)O)nc(N2CCCCC2)c2c1CCCC2 | i |
| O=C(NC1(C(F)(F)F)NC(=O)N(C2CCCC2)C1=O)C1CC1 (stereo unspecified) | 1.1 |
| CCn1c(=O)c(C(=O)NCCc2ccccc2)c(O)c2ccccc21 | 2.6 |
| O=C(c1cc2c(ccc3ccccc32)o1)N1CCN(c2ncc(C(F)(F)F)cc2Cl)CC1 | i |
| CCOc1ccc(-n2c(SCC(=O)Nc3ccccc3C)n[nH]c2=O)cc1 | i |
| CCc1nccn1S(=O)(=O)c1ccc2ccc(C)cc2c1 | i |
| O=c1c2ccccc2nc2ccc(N3CCOCC3)nn12 | 0.4 |
| COc1ccc(N2C(=O)CC(Sc3ncn[nH]3)C2=O)c(OC)c1 (stereo unspecified) | i |
| COc1ccc(OC)c(-c2cc(C(=O)Nc3cc(C)on3)no2)c1 | i |
| Cc1sc2c(c1C)c(=O)n(-c1ccccc1)c1nnc(C)n21 | 0.8 |
| O=C(CCN1CCN(Cc2ccccc2)CC1)Nc1cccc(Cl)c1 | i |
| CN1C(=O)C2(Nc3ccccc3-c3nc4ccccc4n32)c2ccccc21 (stereo unspecified) | i |
| O=C(NCc1ccco1)C(Cc1ccccc1)N1C(=O)C2C3C=CC(C3)C2C1=O (stereo unspecified) | 4.3 |
| CCOc1ccc(S(=O)(=O)NCc2ccco2)c2ccccc12 | 3.6 |

(more compounds)
SMILES	H5N1 antiviral
O=C(CCc1ccccc1)Nc1c(F)c(F)c(F)c(F)c1F	0.3
O=C(CSCC(=O)Nc1nccs1)Nc1ccccc1	i
C=CCOc1ccc(C2/C(=C(\O)c3ccc(F)cc3)C(=O)C(=O)N2CCCN(C)C)cc1 (stereo unspecified)	0.9
CC(NC(=O)Nc1nccs1)(C(F)(F)F)C(F)(F)F	i
N/C(=N\OC(=O)CCC1CCCCC1)c1cccnc1	i
O=C(OCc1ccc(Cl)cc1Cl)c1cccnc1Cl	i
CC(C)CCOc1ccc(C(=O)NCCC(=O)N2CCOCC2)cc1	1.2
Cc1ccc2ccccc2[n+]1CCCS(=O)(=O)[O-]	i
CCC(=O)N1CCN(c2ccccc2NC(=O)COc2cc(C)ccc2C(C)C)CC1	i
Clc1cc(Cl)c(OCc2nc(-c3ccccn3)no2)cc1Cl	i
COC(=O)c1cc(=O)n(Cc2cccs2)c(=NCc2cccs2)s1	2.1
S=c1[nH]nc(-c2ccccc2)n1C1C=CCCC1 (stereo unspecified)	i
C=CCOc1ccccc1C1NC(=O)NC(C)=C1C(=O)NCc1ccccc1 (stereo unspecified)	0.4

High-throughput results deposited in PubChem BioAssay by SRMLSC.
